Compound activity (PubChem BioAssay)
ALR H2O2 inh: inhibitors of human sulfhydryl oxidase ALR. inhibition, % (no concentration beside the values). purified ALR, DTT oxidation, H2O2 HRP-luminol luminescence. 290,000 compounds, 3.8% hits. P55789;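 active = mean and each replicate at 75% or more; inconclusive = only one of the two met; inactive = neither met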;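 also: stock transfer was 7.5 nL into about 7.5 µL; 0% = neutral wells and 100% = wells with inactivated enzyme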
Target sequence (P55789 whole entry, looked up): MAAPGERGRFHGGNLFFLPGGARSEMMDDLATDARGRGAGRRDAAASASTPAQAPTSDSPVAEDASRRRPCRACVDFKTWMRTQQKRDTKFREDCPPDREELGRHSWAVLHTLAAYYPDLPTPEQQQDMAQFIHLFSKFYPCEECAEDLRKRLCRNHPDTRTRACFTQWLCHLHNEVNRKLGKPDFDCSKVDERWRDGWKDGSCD
LANA-H2B inh: blocks KSHV LANA binding to histone H2A/H2B; cell-free LANA-H2A/H2B peptide, fluorescence polarization; inhibition, % (test concentration not listed); 320,000 compounds, 0.6% hits; AID 2629; in the data active = inhibition mostly above about 10%, no sharp cut-off; inactive = mostly below about 6.7%;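 also: stock transfer was 7.5 nL into about 10 µL; 0% = median of vehicle wells and 100% = median of positive control wells; one replicate is shown; the record names a cut of 25% in any replicate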
Calb FLC: C. albicans growth modulation with fluconazole; C. albicans CaCi-2 (fluconazole-resistant clinical isolate) + fluconazole, Alamar Blue growth, 48 h; growth inhibition, % (no concentration beside the values); 300,000 compounds, 0.57% hits; AID 1979;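 active = most replicates above 75%; inconclusive = exactly half above 75%; inactive = most below 75%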;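 also: all wells also contain fluconazole at 8 µg/ml as a sub-toxic cotreatment; 0% = median of DMSO wells and 100% = median of geldanamycin control wells; wells of about 8 µL received 7.5 nL stock; the first replicate is given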
Ecoli rRNA inh: selective bacterial rRNA inhibition in E. coli; E. coli WT GFP vs humanized-ribosome RFP mutants, fluorescence, 24 h; hits give low values; DMSO median 0, no signal -100; GFP signal change (wild-type ribosome), % (no concentration beside the values); AID 720706; 350,000 compounds, 1.6% hits;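 active = significant combined selectivity score with lowered wild-type GFP, culture density cut under 30%, mutant RFP and density less affected; inactive = any of these conditions unmet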; also: one replicate is shown; some compounds called inactive have numbers as strong as hits
Beta apoptosis: beta cell apoptosis inhibition; INS-1E cytokine-induced death, ATP luminescence, 48 h; percent of positive-control rescue, neutral wells zero; protection from apoptosis, % (no concentration beside the values); 300,000 compounds, 0.8% hits; AID 435005;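 active = all replicates at 75% or more, or half of them and the mean; inconclusive = half reach 75% but not the mean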;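 also: 0% = cytokine-treated negative control wells and 100% = positive control rescue; higher means more ATP so stronger rescue from cytokine killing; wells of about 40 µL received 100 nL stock; the first replicate is given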
Beta2AR agonist: human beta-2 adrenergic receptor agonism by FAP; 340,000 compounds, 0.43% hits; response, % (test concentration not listed); Am2.2-beta2AR cells, FAP receptor internalization, flow cytometry; reference of the scale not given here; P07550;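 active = response above a set limit, near 3 SD of response in nonfluorescent compounds, cut at about 42% in these data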;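 also: stock transfer was 100 nL into about 11 µL; a reference agonist was the positive control; negative values mostly stem from fluorescent compounds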
Target sequence (P07550 whole entry, looked up): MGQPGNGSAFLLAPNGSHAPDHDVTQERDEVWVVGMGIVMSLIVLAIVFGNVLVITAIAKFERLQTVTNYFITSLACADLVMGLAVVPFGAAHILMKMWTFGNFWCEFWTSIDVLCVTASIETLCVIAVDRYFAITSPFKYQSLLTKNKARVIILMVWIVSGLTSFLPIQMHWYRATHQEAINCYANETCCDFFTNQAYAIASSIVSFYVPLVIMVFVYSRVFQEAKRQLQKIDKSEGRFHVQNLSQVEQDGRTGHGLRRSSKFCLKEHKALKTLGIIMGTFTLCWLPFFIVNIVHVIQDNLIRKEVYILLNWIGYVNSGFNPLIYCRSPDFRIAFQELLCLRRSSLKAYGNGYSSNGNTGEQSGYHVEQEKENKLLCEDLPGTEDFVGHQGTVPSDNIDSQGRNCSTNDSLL
T cruzi repl: T. cruzi replication inhibition; inhibition, % (test concentration not listed); AID 1885; 300,000 compounds, 1.4% hits; T. cruzi beta-gal in NIH3T3, luminescence, 90 h;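 active = mean inhibition across valid replicates above about 55%, limit read from the data; inconclusive = mean below that limit but half or more replicates reach it; inactive = mean below it, under half of replicates reach it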;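 also: signal also drops with host cell toxicity which is not excluded here; 0% = plate median of DMSO wells and 100% = zero luminescence signal; higher percent means less beta-gal luminescence so fewer parasites; stock transfer was 50 nL into about 50 µL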
A1 inh: inhibitors of the anti-apoptotic protein A1, read as caspase activation. MEF A1-2A-BIM cells, Caspase-Glo 3/7 luminescence, 3 h; percent of clofoctol response, vehicle zero. caspase activation, % (concentration not given with the values). 330,000 compounds, 0.066% hits. AID 2462;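 active = over half of replicate activation scores above 10%, or exactly half above 10 with the replicate mean above 10; inconclusive = replicate mean below 10 yet half the replicates above 10; inactive = over half of replicates below 10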;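 also: wells of about 30 µL received 50 nL stock; many hits fall short of the cut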
Ecoli rRNA inh OD600: second read-out of Ecoli rRNA inh, no call of its own (marks repeat the call); OD600 change, %; measured here: OD600 growth;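 optical density of the mix in the first replicate; 0 = DMSO median and -100 = no signal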
Ecoli rRNA inh RFP: recorded beside Ecoli rRNA inh, whose call it bears; RFP signal change, %; measured here: RFP humanized mutant strains;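 first replicate; 0 = DMSO median and -100 = no signal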
* marks the source's active call; other numbers are inactive results; ? = inconclusive; / = no result given; & = joins results of further samples.

Below each SMILES – Ecoli rRNA inh RFP | ALR H2O2 inh | Calb FLC | Ecoli rRNA inh | A1 inh | LANA-H2B inh | T cruzi repl | Ecoli rRNA inh OD600 | Beta apoptosis | Beta2AR agonist
Nc1cc(-c2ccccc2)nn1S(=O)(=O)c1ccc(Br)cc1
→ -0.8 | 99* | 4 | 2 | 0.3 | -6.8 | 23 | 3 | 0 | -1
CC1CC=C(c2ccccc2)C(=S)N1 (centres undefined)
→ 21 | -4 | -2 | -2 | 1.7 | 2.1 | -20 | -1 | -3 | 3
Cc1ccc(N=Cc2sccc2C)cc1C
→ / | -13 | -11 | / | 0.0 | 0.5 | -8 | / | 3 | -2
O=C(CSc1nnc(-c2cccc(Cl)c2)o1)Nc1ccc2c(c1)OCCO2
→ -0.4 | 11 | 3 | 3 | 1.1 | -1.2 | -5 | -2 | 3 | 6
COCCn1c(SCC(=O)NC2CCCC2)nc2c(c1=O)SCC2
→ -1.6 | -5 | -7 | 3 | -1.2 | 5.0 | -13 | 2 | 0 | -6
CN(C(=O)C(Cl)Cl)C1CC2C=CC1C2 (centres undefined)
→ 0.0 | -3 | -4 | 19 | 0.0 | 2.9 | -12 | 10 | 3 | -1
Fc1ccccc1OCCCCn1cncn1
→ / | -1 | -10 | / | 0.4 | 3.0 | -13 | / | 2 | 0
CCN(CC)CC(=O)N1c2ccccc2CCc2ccc(NC(=O)c3cc(OC)c(OC)c(OC)c3)cc21
→ 1.8 | -4 | 1 | -4 | -0.6 | -3.4 | 31 | -3 | -3 | 20
Cc1ccc(C)c(S(=O)(=O)C(C#N)c2nc3ccccc3nc2N2CCCC2)c1 (centres undefined)
→ / | -14 | -16 | / | 1.1 | -7.1 | -2 | / | 1 | 5
CCOc1ccc(C(=O)C[n+]2cccc3cc(C)ccc32)cc1
→ -1.0 | 7 | -7 | 6 | 0.1 | -3.7 | 68* | 3 | -29 | -229
O=C(Nc1cccc(O)c1)c1cccc(C(=O)Nc2cccc(O)c2)c1
→ 1.8 | -2 | -2 | -15 | 0.2 | 0.7 | -15 | -19 | 13 | 0
Cc1ccccc1Cn1cc(NC(=O)c2cc(-c3ccco3)on2)cn1
→ -1.2 | -4 | 2 | -7 | 0.3 | -2.4 | 10 | -2 | 8 | -3
CC(C)(C)c1ccc(S(=O)(=O)N2CCN(C3CCCC3)CC2)cc1
→ -0.9 | 1 | -16 | 0 | -0.2 | 2.1 | -22 | 1 | 9 | 2
COc1cc(C)ccc1S(=O)(=O)n1nc(C)cc1C
→ 1.0 | 0 | -5 | 22 | -1.3 | 2.4 | -21 | 22 | -1 | 3
COc1ccc2c(CC(=O)NNC(=O)c3ccc(C)cc3)coc2c1
→ 0.5 | -1 | / | 0 | 0.3 | -0.6 | / | 4 | -6 | 2
COCCn1ccc(O)c(Cc2ccccc2)c1=O
→ / | -14 | 0 | / | 0.8 | 1.1 | -18 | / | -2 | -2
COc1cc(C)c(CN2CCN(CC(=O)Nc3ccccc3C(=O)NC3CC3)CC2)cc1OC
→ -0.5 | -6 | / | 4 | 0.4 | 4.4 | / | 17 | -2 | -7
COc1ccc(C(CNC(=O)CCNC(=O)c2ccc(Br)cc2)N2CCOCC2)cc1 (centres undefined)
→ -1.6 | 4 | 5 | -3 | -0.4 | 0.0 | -9 | 7 | 3 | -1
O=C(Nc1ccc([N+](=O)[O-])cc1)Nc1ccc2[nH]c(=O)[nH]c2c1
→ -3.0 | -7 | -3 | -1 | 1.0 | -2.3 | -4 | -1 | 4 | -1
O=C(CNC(=O)c1ccc(S(=O)(=O)N2CCCC2)cc1)N/N=C/c1ccco1
→ -1.4 | 3 | ? | 3 | 0.9 | -1.7 | -3 | -6 | -3 | 2
O=S(=O)(NC1CCCCCCC1)c1ccccc1F
→ 1.9 | -12 | -28 | -18 | 0.3 | 2.9 | 9 | -26 | -6 | -1
CCN(CC(=O)Nc1ccccc1C(F)(F)F)C(=O)CCc1ccccc1
→ 0.5 | 1 | -5 | 4 | -0.1 | -3.6 | -1 | 7 | -24 | 7
Cc1cc(CSCc2ccc(Cl)cc2)no1
→ 2.6 | 1 | 6 | 3 | ? | 5.3 | -10 | 9 | -8 | -11
Cc1c(C(=O)NCC2COc3ccccc3O2)oc2ccc(S(=O)(=O)N(C)C3CCCCC3)cc12 (centres undefined)
→ 4.8 | -3 | 9 | -1 | 0.2 | -6.3 | 75* | 8 | 14 | 24
O=C(O)c1ccc(CSc2nc3ccc(N4C(=O)C5C6C=CC(C6)C5C4=O)cc3s2)cc1 (centres undefined)
→ / | / | ? | / | 2.0 | 1.8 | -4 | / | -11 | 3
Cc1noc2ncnc(Oc3cc(Cl)ccc3Cl)c12
→ -2.8 | -17 | -10 | 17 | 0.3 | 8.6 | -28 | 6 | 2 | 4
N#Cc1ccc(C(=O)CSc2nnc(-c3ccc(C(F)(F)F)cn3)s2)cc1
→ 2.2 | 1 | -2 | 5 | -1.2 | 0.8 | 0 | -6 | 6 | 5
Cc1nn(C(=O)c2cc3sccc3[nH]2)c(C)c1C
→ 4.2 | -1 | -4 | 11 | -3.6 | -4.1 | -10 | 4 | / | -3
CN(C)c1ccc(C(C(=O)NC2CCCC2)N(C(=O)c2ccco2)C2CC2)cc1 (centres undefined)
→ 0.7 | 99* | 0 | -1 | 0.2 | 2.4 | 13 | -4 | -1 | -4
Cc1ccc(-c2[nH]ncc2C(=O)c2ccccc2C)c(O)c1
→ -2.1 | 70 | 6 | 8 | 1.3 | 2.2 | -11 | 7 | 4 | 13
COc1ccc(CNC(=O)C2CCCN(S(=O)(=O)c3cccc4nsnc34)C2)cc1 (centres undefined)
→ -1.9 | -1 | -8 | 8 | 0.0 | 3.4 | 0 | 9 | -8 | -14
CCOC(=O)C(/C=C(\C#N)C(=O)OCC)=C(/N)N1CCN(c2c(C)cccc2C)CC1
→ / | -14 | 8 | / | -0.2 | -3.0 | -3 | / | -8 | 10
CCOCc1nc(C)c(Cl)c(NS(=O)(=O)c2ccc(N)cc2)n1
→ -1.3 | -4 | -1 | 10 | 0.0 | -2.0 | 7 | 5 | -4 | -2
CS(=O)(=O)c1cccc(NC(=O)c2ccc(Cl)c(Cl)c2)c1
→ -4.5 | -3 | 4 | -17 | 0.2 | 0.6 | 58* | -13 | -5 | -6
C=CCn1c(SCC(=O)Nc2c(C)cccc2C)nnc1-c1ccncc1
→ / | -4 | -2 | / | 0.8 | 7.5 | -3 | / | -2 | 0
Nc1cc(-c2ccc(Br)cc2)nn1S(=O)(=O)c1ccccc1
→ -0.4 | ? | 4 | 6 | -0.1 | -0.3 | 9 | 10 | -2 | -1
COc1ccc2oc(C(=O)OCC(=O)NC(C)c3ccccc3)c(C)c2c1 (centres undefined)
→ -0.9 | 0 | 5 | 8 | 0.0 | -5.8 | -4 | 12 | -7 | 3
CN(CCc1ccccc1)C1CCCN(C(=O)Cn2cccn2)C1 (centres undefined)
→ 0.0 | -3 | 4 | 7 | 0.0 | 3.8 | 15 | 3 | -3 | -12
N#CCSc1nnc(COc2cccc3ccccc23)n1-c1cccc(Cl)c1
→ / | -39 | -4 | / | -0.2 | -2.2 | 34 | / | -3 | 11
O=C(NCc1ccc(Cl)c(Cl)c1)c1ccco1
→ / | 5 | -6 | / | -0.3 | -2.2 | -2 | / | -3 | -12
NC(=O)COC(=O)c1ccc(-c2ccccc2)cc1
→ -7.3 | -8 | -13 | -5 | -0.9 | -0.7 | -21 | -5 | -6 | 9
C/C(N)=C(/C#N)C(=O)CSc1n[nH]c(-c2ccccc2Br)n1
→ -0.1 | / | 9 | -1 | -0.9 | -0.2 | 7 | -1 | -1 | 0&1
CCOC(=O)C1=C(c2ccccc2)OC(N)=C(C#N)C1c1ccc(Cl)s1 (centres undefined)
→ / | -3 | 20 | / | 0.1 | 2.4 | -14 | / | -2 | -1
CCn1ncc(CN2CCN(Cc3ccc(OC)c(C)c3C)C(CCO)C2)c1C (centres undefined)
→ 2.9 | -4 | -8 | 13 | 0.3 | 1.8 | 25 | 6 | -7 | -5
O=C(CN1C(=O)C2C3C=CC(C3)C2C1=O)NCCC1=CCCCC1 (centres undefined)
→ / | -3 | -4 | / | -1.0 | -2.5 | -14 | / | -2 | -2
CCN1CCN(C(=O)c2ccccc2N(Cc2ccccc2)S(=O)(=O)c2ccc(OC)cc2)CC1
→ -2.4 | 6 | -2 | -1 | 0.5 | 5.1 | 10 | -1 | -5 | -4
COc1ccc(-c2csc(N(CCCN(C)C)C(=O)c3cccs3)n2)cc1
→ / | / | 8 | / | 0.4 | 1.5 | 66* | / | -29 | 6
Cc1ccccc1-n1nc2c(c1NC(=O)C(C)(C)C)CS(=O)(=O)C2
→ 1.4 | 1 | -11 | 4 | 0.8 | -2.2 | -1 | 12 | -11 | 1
S=C(Nc1cccnc1)Nc1ccccn1
→ / | / | -1 | / | 0.6 | -2.9 | -4 | / | -2 | -2
CCC(c1nnc(SCC(=O)Nc2ccc(S(N)(=O)=O)cc2)n1Cc1ccccc1)N(C)C (centres undefined)
→ 5.7 | -6 | 1 | 20 | 0.9 | 0.4 | 7 | 11 | -2 | 1
S=c1[nH]nc(-c2cc(-c3ccccc3)n[nH]2)n1/N=C/c1ccc(Cl)c(Cl)c1
→ 2.4 | / | 0 | 3 | 1.3 | -1.1 | -5 | 13 | 6 | 0
Cn1c(SCc2nc(-c3ccc(Cl)cc3)no2)nnc1-c1ccco1
→ 4.1 | 14 | 7 | -12 | 0.1 | 1.2 | 13 | -14 | -3 | -17
CCCN(CCO)Cc1cccc(Br)c1
→ / | -7 | 2 | / | -0.2 | -3.5 | 0 | / | -6 | -10
CCN(CC)CCOC(=O)C1(c2ccccc2)CCOCC1
→ / | 6 | 4 | / | 1.3 | 3.4 | 2 | / | 0 | 30
Cc1nnc(NC(=O)C(C)Sc2nncn2C)s1 (centres undefined)
→ -0.6 | -8 | 0 | 1 | -0.6 | -0.5 | -11 | 4 | -4 | 2
O=c1ccc2cc(S(=O)(=O)N3CCN(c4cc(Cl)ccc4Cl)CC3)ccc2o1
→ / | -4 | 20 | / | -0.1 | 7.4 | 17 | / | 6 | -4
CCOc1ccc(OCC)c(NC(=O)Cn2cccc2)c1
→ -2.9 | 1 | 6 | 4 | -0.6 | -11 | 4 | -11 | -4 | -9
CC(NC(=O)C(c1ccccc1)c1ccccc1)c1ccccc1 (centres undefined)
→ -5.0 | 0 | 11 | 2 | 0.5 | -2.2 | -4 | 6 | / | 9
Cc1ccc(C(=O)Nc2ccc(C(F)(F)F)n(C)c2=O)cc1
→ 4.3 | -11 | 9 | 16 | -2.6 | -7.3 | 4 | 18 | -1 | -7
CCNc1nc(NCC)nc(N(C)N)n1
→ / | 84* | -16 | / | 0.1 | -3.3 | -8 | / | 4 | -6

This is a subset; count on the stated rates, not on these rows.
